StopGo reporter = FMDV 2A StopGo reporter, luciferase signal; human cells with a luciferase reporter of 2A StopGo recoding; control for the full effect not named in the record; Potency, µM (highest dose often 57.9 µM), without a hit: top-dose signal change, negative = less light; 410,000 tested, 1.2% active; active = well fitted falling curve with a large enough effect; inconclusive = small, poorly fitted or top-dose-only effect; inactive = no such curve, though single readings can be large or run the other way; tested in HEK293T cells; also: % is scaled to controls: 0 for no effect and ±100 for the full control effect; nearly all actives have a fitted effect of over 45% in size; luciferase light after 4 h
LASV entry inh = blocks Lassa virus binding to or entry into cells; Lassa virus pseudotype entry inhibition, cell reporter; control for the full effect not named in the record; Potency, µM (top dose mostly 37.9 µM), for the others: at the top dose activity change, negative = inhibition, hits mostly inhibitors; 300,000 tested, 1.2% active; AID 540256; active means well fitted inhibition curve with a large enough effect; inconclusive means small, poorly fitted or top-dose-only effect, or effect the other way; inactive means flat fitted curve, though single readings scatter; tested in HEK293 cells; also: % is scaled to controls: 0 for no effect and ±100 for the full control effect; nearly all actives have a fitted effect of over 50% in size; luciferase read-out
Marburg entry inh = Marburg virus entry inhibition | Marburg virus pseudotyped entry inhibition, cell reporter; control for the full effect not named in the record; about a third of the inactives were read at about 46 µM | Potency, µM (highest dose often 37.8 µM), for inactives: at the top dose activity change, negative = inhibition, most hits filed as inhibitors | 300,000 tested, 1.8% active; active = well fitted inhibition curve with a large enough effect; inconclusive = small, poorly fitted or top-dose-only effect, or effect the other way; inactive = flat fitted curve, though single readings scatter; tested in HEK293 cells; about a fifth of its hits are not listed in these tables; also: % is scaled to controls: 0 for no effect and ±100 for the full control effect; luciferase read-out
RE007 growth inh = less growth of the S. pombe RE007 Vpr strain | S. pombe RE007 Vpr strain, BacTiter-Glo ATP luminescence, 24 h; control for the full effect not named in the record | AID 651644 | 360,000 tested, 0.21% active | Potency, µM (titrated, usually from 92.2 µM), without a hit: at the highest dose activity change, negative = less growth; active = well fitted falling curve with a large enough effect; inconclusive = small, poorly fitted or top-dose-only effect; inactive = no such curve, though single readings can be large or run the other way;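 also: % is scaled to controls: 0 for no effect and ±100 for the full control effect; nearly all actives have a fitted effect of over 50% in size; the assay follows cell death caused by Vpr and the record does not say whether a fall means rescue or toxicity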
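Fission yeast strain RE007, carrying one chromosomally integrated HIV-1 vpr copy, was seeded at OD 0.01 in PMG+AL medium with 23 nL pinned compound. After 24 h at 30 °C and 99% humidity, viability was read by BacTiter-Glo luminescence.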
Cruzain inh noDet = blocks cruzain activity in detergent-free assay; P25779; purified cruzain, Z-FR-AMC fluorescence, no detergent; Potency, µM, for the others: max response, negative = inhibition, usual class: inhibitors; 200,000 tested, 2.3% active; AID 1476; active = well fitted curve in the direction sought with a large enough effect; inconclusive = small, poorly fitted or top-dose-only effect, or another doubt; inactive = no such curve, though single readings can be large; an effect the other way counts as inactive or inconclusive;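 also: plate controls were enzyme without inhibitor for no effect and buffer without enzyme for full effect; nearly all actives have a fitted effect of over 40% in size; top concentration of the series not given in the record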
Target sequence (P25779 123-467 limits assumed): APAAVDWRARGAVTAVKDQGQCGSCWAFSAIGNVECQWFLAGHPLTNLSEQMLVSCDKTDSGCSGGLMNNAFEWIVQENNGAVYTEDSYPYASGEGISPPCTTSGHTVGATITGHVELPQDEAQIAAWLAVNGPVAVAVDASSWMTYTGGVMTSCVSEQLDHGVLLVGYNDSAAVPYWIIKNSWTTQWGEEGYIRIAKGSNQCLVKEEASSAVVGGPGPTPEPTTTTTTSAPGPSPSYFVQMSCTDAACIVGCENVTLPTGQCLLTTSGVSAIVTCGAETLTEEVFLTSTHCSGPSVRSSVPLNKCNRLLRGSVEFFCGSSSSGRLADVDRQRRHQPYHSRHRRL
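Detergent-free condition (0.00005% Triton X-100) in acetate buffer pH 5.5 with DTT. 1.5 nM enzyme and compound were pre-mixed 15 min, then 2 uM Z-FR-AMC substrate added; reaction progress from fluorescence change between first and third reads (60 s).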
Cruzain inh Det = blocks cruzain activity in presence of Triton detergent; Potency, µM, inactives show max response, negative = inhibition, actives largely listed as inhibitors; purified cruzain, Z-FR-AMC fluorescence, 0.01% Triton; AID 1478; 200,000 tested, 0.43% active; P25779; active = well fitted curve in the direction sought with a large enough effect; inconclusive = small, poorly fitted or top-dose-only effect, or another doubt; inactive = no such curve, though single readings can be large; an effect the other way counts as inactive or inconclusive;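 also: plate controls were neutral wells for no effect and buffer without enzyme for full effect; nearly all actives have a fitted effect of over 40% in size; top concentration of the series not given in the record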
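In this qHTS format, compounds are incubated with 1.5 nM cruzain for 15 min at room temperature before 2 uM Z-FR-AMC is added. Release of AMC is followed at 360/450 nm, and progress is taken as the 60 s fluorescence difference.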
NS1 inh = influenza NS1 inhibition; S. cerevisiae slowed by influenza A NS1, growth recovery by OD600; Potency, µM (series often up to 46.1 µM), without a hit: at the top dose activity, positive = more growth; 270,000 tested, 0.4% active; AID 2326; also: actives are rising curves; nearly all actives have a fitted effect of over 50% in size
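S. cerevisiae expressing influenza A NS1, grown in glucose, washed, then diluted 1:100 into pH 6.0 -URA galactose medium with 23 nl compound. Growth recovery read as OD600; NS1-free strain serves as control.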
SARS PLpro yeast = blocks SARS-CoV papain-like protease in a yeast assay; S. cerevisiae expressing SARS-CoV PLpro, growth rescue; control for the full effect not named in the record; AID 485353; 330,000 tested, 0.19% active; Potency, µM (highest dose often 32.9 µM), inactives show at the top dose activity, positive = growth rescue; also: 0% is about no effect; nearly all actives have a fitted effect of over 55% in size; growth read by luminescence after 48 h
Active calls of the source: *; ? = inconclusive; . = not tested or not shown; & = joins results of further samples; [ ] = remark or other dose. Unless noted, calls follow the shape of the dose curve; as a rule, active means well fitted rising curve with a large enough effect; inconclusive means small, poorly fitted or top-dose-only effect; inactive means no such curve, though single readings can be large or run the other way. Potency is read from the fitted curve at half-maximal effect.

| SMILES | SARS PLpro yeast | NS1 inh | Marburg entry inh | Cruzain inh noDet | LASV entry inh | Cruzain inh Det | RE007 growth inh | StopGo reporter |
| --- | --- | --- | --- | --- | --- | --- | --- | --- |
| CCCc1nc2sc3ccccc3c(=O)c2c(=O)n1Cc1ccc(OC)cc1 | 0% | 5% | -2%[46.1 µM] | . | 11% | . | 23% | ? |
| COc1ccc(-c2cnn3c(C)cc(C)nc23)cc1OC | . | . | . | -9% | 6%[46.1 µM] | -4.8% | . | -5% |
| CC(Oc1ccc(-c2ccccc2)c(F)c1)c1ccn(S(=O)(=O)c2ccc(Cl)cc2)n1 (centres undefined) | 0% | 3% | -25% | ? | -35% | 11% | 6% | ? |
| CCCCCCC(N)CC(=O)O (centres undefined) | 2% | 10% | 21% | 15% | 12% | 5.0% | 28% | -14% |
| Cc1ccccc1C(=O)NC(=S)Nc1ccccc1[N+](=O)[O-] | -1% | 8% | 14%[46.1 µM] | . | -10% | . | -3% | 27% |
| COc1ccc(NC(=O)CSc2nc3ccc(Nc4nc(N5CCOCC5)nc(N5CCOCC5)n4)cc3s2)cc1 | 22% | 11% | . | . | . | . | 13% | -28% |
| Cc1ccc(N2C(=O)CC(C)(C)CC2=O)cc1Cl | 2% | 1% | ? | . | 16% | . | 2% | -20% |
| Cc1ccc(S(=O)(=O)NCC(c2ccco2)S(=O)(=O)c2ccccc2)cc1 (centres undefined) | 1% | . | -19%[46.1 µM] | . | ? | . | 1% | 24% |
| O=C(Nc1ccc(S(=O)(=O)NCCc2ccccc2)cc1)c1ccc(Br)o1 | -1% | 0% | 11%&11% | 8% | ? | -8.0% | -4% | 26% |
| N#C/C=C/N1CCN(Cc2ccc3c(c2)OCO3)CC1 | -1% | -9% | ? | . | ? | . | -12% | -8% |
| Cc1ccc(S(=O)(=O)NC(=O)Nc2cc(C)on2)cc1 | 0% | 5% | 18%[46.1 µM] | . | -5%[46.1 µM] | . | 32% | -13% |
| Cc1ccc(CCNC(=O)C2CC(c3cccc(F)c3)=NO2)cc1 (centres undefined) | 2% | 0% | . | . | . | . | 4% | -8% |
| Cc1cc(C)c(S(=O)(=O)N(C)CC(=O)NCc2cccnc2)c(C)c1 | 2% | 7% | 17%[46.1 µM] | . | -31% | . | 6% | 16% |
| CCCn1c(CN2CCN(C(=O)c3ccco3)CC2)nc2cc(S(=O)(=O)N(C)C)ccc21 | 2% | . | -5% | . | 1% | . | 6% | 2% |
| Cc1cc(C(=O)OCC(=O)Nc2cccnc2Cl)c2ccccc2n1 | 5% | . | -14%[46.1 µM] | . | -12% | . | -4% | ? |
| Cc1ccc2nc(CN3CCN(C(=O)Nc4cccc(C)c4C)CC3)oc2c1 | . | . | . | 6% | 4%[46.1 µM] | -1.2% | . | -23% |
| CC(C)CC[n+]1ccccc1/C=C/c1ccc(N(C)C)cc1 | -2% | -8% | ? | . | ? | . | -18% | ? |
| CCCn1nc(NC(=O)C2CCCO2)c2cc3ccc(C)cc3nc21 (centres undefined) | 1% | 0% | ? | . | ? | . | ? | 13% |
| C[C@H](N)c1nnc(SCC(=O)N(C)C)o1 | -1% | 14% | 0% | 2% | 1% | 1.0% | 15% | -17% |
| CCCCn1c(N)c(N(CCOC)C(=O)c2cc3c(s2)CCC(C)C3)c(=O)[nH]c1=O (centres undefined) | -2% | . | 7%[46.1 µM] | . | 4% | . | -11% | 30% |
| O=C(c1cccc(S(=O)(=O)NCc2ccccc2)c1)N1CCN(Cc2ccccc2)CC1 | -2% | -8% | 14% | 7% | -17% | -0.6% | -11% | -18% |
| CCn1nnc(NC(=O)c2c(OC)cccc2OC)n1 | -2% | -4% | ? | 7% | 1% | 3.4% | 10% | 0% |
| O=C(O)c1cccc(CN2C(=O)c3ccccc3C2=O)c1 | 1% | 3% | 14%[46.1 µM] | . | ? | . | 7% | 3% |
| CC(=O)Nc1ccc(S(=O)(=O)Nc2ccc(S(=O)(=O)Nc3nccs3)cc2)cc1 | -1% | 5% | 7%[46.1 µM] | . | -4%[46.1 µM] | . | -17% | 15% |
| O=C(Cn1nnc2ccccc21)N/N=C\C=C\c1ccccc1 | -8% | 15% | 1% | -18% | -17% | -5.0% | 25% | 6% |
| CCCCN1C(=O)C(O)=C(C(C)=O)C1c1ccc(OC)cc1OC (centres undefined) | 1% | 15% | 9% | 1% | 7% | 5.2% | 6% | -27% |
| Cc1ccc(S(=O)(=O)N2CCOC23CCN(S(=O)(=O)c2c(C)cc(C)cc2C)CC3)cc1 | 3% | . | ? | . | ? | . | 10% | -1% |
| COc1cccc(-n2c(SCC(N)=O)nc3ccccc3c2=O)c1 | 0% | . | -4%[46.1 µM] | . | 21%[46.1 µM] | . | -19% | -14% |
| CCOC(=O)c1cnc2c(C)cccc2c1NCc1ccco1 | -6% | -9% | -13% | -5% | 12% | -7.4% | 1% | . |
| CC(CCc1ccccc1)N1CCN(Cc2ccccc2)CC1 (centres undefined) | -3% | 20% | -25% | 8% | ? | -2.8% | 15% | -19% |
| CCCCc1ccc(NC(=O)CSc2nc(=O)[nH]c3c2CCCC3)cc1 | . | . | . | -6% | ? | -0.9% | . | ? |
| CCc1sc(C(=O)NCCc2ccc(S(N)(=O)=O)cc2)cc1Br | 0% | 2% | 6% | . | ? | . | 0% | -18% |
| S=C(NCC1CCCO1)N1CCN(c2ccc(Cl)c(Cl)c2)CC1 (centres undefined) | -2% | -32% | ? | . | ? | . | -23% | ? |
| COc1ccc(OC)c(-n2cnc3cc(C(=O)NC4CCCCCC4)ccc32)c1 | . | . | . | -12% | 16%[46.1 µM] | -6.7% | . | 31%[activator] |
| Cc1ccc(C)c(NC(=O)NC2CCCCCCC2)c1 | -4% | -7% | . | . | . | . | 3% | 11% |
| CCOC(=O)N1CCN(C(=S)Nc2cc(S(=O)(=O)N3CCOCC3)ccc2Cl)CC1 | 0% | -2% | ? | . | ? | . | 11% | ? |
| Cc1ccc(N(C(=O)Cn2nnc3ccccc32)C(C(=O)NCc2ccco2)c2cccnc2)cc1 (centres undefined) | -3% | ? | 6%&0% | -6% | -21% | 0.8% | 6% | -3% |
| CN(C)c1ccc(-[n+]2c(-c3ccccc3)cc(-c3ccccc3)cc2-c2ccccc2)cc1 | -4% | -41% | ? | . | ? | . | -2% | 32µM* |
| CCn1cc(Cl)c(C(=O)Nc2c(C)nn(Cc3c(F)c(F)c(F)c(F)c3F)c2C)n1 | -8% | 12% | -1%[46.1 µM] | . | 3%[46.1 µM] | . | 8% | 2% |
| Cc1cc2ccccc2n2c(SCC(=O)Nc3ccc(S(=O)(=O)N4CCC(C)CC4)cc3)nnc12 | 8% | 16% | ? | ? | -22% | -2.5% | 0% | 0% |
| Cc1ccc(S(=O)(=O)N(CC(=O)Nc2ccc(F)cc2)C(=O)N2CCN(C)CC2)cc1 | -4% | . | 1% | . | 11% | . | -16% | 1% |
| CCOc1ccc(-c2cc(C(=O)NCCCN3CCOCC3)c3ccccc3n2)cc1 | -2% | -8% | . | . | . | . | 2% | 11% |
| Cc1ccc2c(c1)c1c(n2CC(O)Cn2nc(C)c(Br)c2C)C(=O)CCC1 (centres undefined) | -3% | -32% | ? | 17% | 7% | 5.5% | 6% | -14% |
| CCC(CC)=NNc1ccc(S(N)(=O)=O)cc1[N+](=O)[O-] | -2% | 3% | . | . | . | . | -8% | -22% |
| CN(C)/C=C(\c1cnc(Cl)s1)S(=O)(=O)c1ccccc1 | -1% | 4% | . | . | . | . | -4% | -6% |
| O=C(Cc1ccccc1Cl)N1CCN(c2ccccn2)CC1 | 0% | . | -24% | . | 15% | . | -1% | -17% |
| Cc1ccc(C(C(=O)NC2CCCC2)N(Cc2ccc(F)cc2)C(=O)c2csnn2)o1 (centres undefined) | -5% | -15% | ? | 2% | ? | -2.3% | 0% | 9% |
| COc1ccc(N(Cc2cc3cc(C)ccc3[nH]c2=O)C(C)=O)cc1 | 2% | 17% | . | . | . | . | 5% | -19% |
| Cn1cccc1CC(=O)NNC(=S)Nc1ccc(Cl)cc1 | -15% | 18% | 15% | 6% | 6% | -2.7% | 9% | 47%[activator] |
| CCSC1=C(C#N)C(c2ccc(C)s2)CC(=O)N1 (centres undefined) | -3% | 0% | 11% | 7% | 18% | 4.0% | -1% | -25% |
| COC(=O)C1=C(C)N(Cc2ccco2)C(=O)C1 | 0% | -41% | 9% | ? | 2% | 1.9% | -6% | -19% |
| S=C(NCc1ccco1)N1CCN(c2nc(-c3ccc(Cl)cc3)cs2)CC1 | -4% | . | ? | . | ? | . | -6% | ? |
| COc1cccc(-c2noc(-c3ccc4c(c3)OCO4)n2)c1 | -4% | . | ? | . | ? | . | 2% | -67% |
| O=C(CSc1ncccn1)NN=C1CCCCCCC1 | -4% | 7% | 7% | 0% | -1% | -1.8% | 10% | -20% |
| CCCCCCCn1c(=O)c(C(=O)OC)c(N)c2ccccc21 | -5% | -96% | ? | . | ? | . | -7% | 13µM* |
| Cc1noc2ncnc(Sc3ccc(Cl)cc3)c12 | . | -49% | ? | 4% | -20% | -1.2% | ? | ? |
| O=C(CCN1C(=O)/C(=C/c2ccccc2Cl)SC1=S)NC1C=CS(=O)(=O)C1 (centres undefined) | -5% | 5% | . | . | . | . | -4% | -11% |
| CCOc1ccc(C(=O)CCC(=O)Nc2ccc(C)cn2)cc1 | -3% | . | -2% | . | ? | . | -20% | 35%[activator] |
| CCc1ccc(-n2c(C)cc(/C=N/NC(=O)OC)c2C)cc1 | 8% | 5% | -29% | 9% | -4% | -4.2% | -6% | 9% |
| Clc1ccccc1CNc1ncnc2nc[nH]c12 | ? | -94% | -10% | 11% | 4% | -0.7% | 15% | -21% |
| O=C(CSc1ncnc2sc(-c3ccccc3)cc12)NC1CCS(=O)(=O)C1 (centres undefined) | -1% | . | ? | . | 2%[46.1 µM] | . | 5% | 2% |
| CSCCC(NC(=O)c1cccc(C)c1)C(=O)OCN1C(=O)c2ccccc2C1=O (centres undefined) | 5% | . | ? | . | -6% | . | -2% | 5% |
| COc1cc(NC(=O)c2ccccc2[N+](=O)[O-])ccc1NC(=O)C(C)C | -3% | -2% | -2% | -8% | 11% | -2.1% | -13% | 7% |

Assay outcomes from PubChem BioAssay.
